Assay outcomes from PubChem BioAssay.
Menin MLL FP FL – inhibitors of human menin-MLL interaction, wild-type MLL peptide; Fluorescence polarization, fluorescein-MLL peptide displacement from menin; FP activity change, % at 61.4 µM; 290,000 tested, under 10 active; AID 1766; inconclusive = falling polarisation curve, or a change in total fluorescence; inactive = total fluorescence flat and polarisation flat or rising; no compound was filed as active; the % refers to the polarisation; negative = inhibition;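 also: % of control where 0% means no effect; inhibitors lower the polarisation; unlabelled MLL peptide was the positive control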
ClpP mod – qHTS Assay for Activators of ClpP. ATP-dependent Clp protease proteolytic subunit (Bacillus subtilis (strain 168)), P80244. purified B. subtilis ClpP, FRET peptide cleavage, 20 min. Potency, µM (top dose mostly 57.5 µM), inactives show at the top dose activity change, negative = active. 1.9% of 340,000 active; active = well fitted falling curve with a large enough effect; inconclusive = small, poorly fitted or top-dose-only effect; inactive = no such curve, though single readings can be large or run the other way; also: potency is read from the fitted curve at half-maximal effect; the source files actives as falling curves though it sought activators and does not explain the sign; nearly all actives have a fitted effect of over 65% in size; many hits overshoot -100%
Target sequence (P80244 whole entry, looked up): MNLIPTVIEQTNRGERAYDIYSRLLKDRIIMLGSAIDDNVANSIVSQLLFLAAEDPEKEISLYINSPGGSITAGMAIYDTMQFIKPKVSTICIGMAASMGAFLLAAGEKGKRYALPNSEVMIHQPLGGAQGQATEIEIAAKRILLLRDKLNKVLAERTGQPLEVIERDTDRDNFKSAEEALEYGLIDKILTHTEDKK
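Purified B. subtilis ClpP, 10 microg/mL final in Tris/HCl pH8 with KCl, BSA, glycerol and Tween-20, cleaved an Abz/nitrotyrosine-quenched decapeptide. Fluorescence (ex 320, em 430) was read at 0 and 20 min at room temperature. Delta was normalized to 5.8 microM ADEP and DMSO/no-enzyme controls.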
gsp ag – activates gsp, the McCune-Albright syndrome mutation | AID 624287 | gsp mutant cells, cAMP HTRF, 30 min; control for the full effect not named in the record | 0.13% of 340,000 active | Potency, µM (top dose mostly 76.9 µM), for inactives: at the highest dose activation (cAMP increase), most hits filed as activators; active = well fitted activation curve with a large enough effect; inconclusive = small, poorly fitted or top-dose-only effect, or another doubt; inactive = no such curve, though single readings can be large or run the other way; cell line not stated here;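 also: phosphodiesterase inhibitor Ro 20-1724 added with compounds to block cAMP breakdown; potency is read from the fitted curve at half-maximal effect; nearly all actives have a fitted effect of over 60% in size; about a fifth of the inactives were tested at one dose only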
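Cells in DMEM/10% FBS with G418 were pretreated with compounds in DMSO plus […] (300 uM stock) for 30 min at 37C. cAMP was measured by HTRF (cAMP-d2 plus anti-cAMP antibody-K) after 30 min at room temperature.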
CtBP-E1A blk – CtBP/E1A binding inhibition | AlphaScreen GST-E1A/His-CtBP binding, 1536-well; stronger effect = lower value; control for the full effect not named in the record | activity change, % (concentration not given with the values) | 0.49% of 340,000 active; in the data active means activity change below about -65%; inconclusive means about -30% to -65%; inactive means above about -30%; also: % is scaled to controls: 0 for no effect and ±100 for the full control effect
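GST-E1A and His-tagged CtBP (125 nM each as 5X stock) were preincubated with pin-transferred compound for 2 h at 37 °C in the dark, then glutathione donor and nickel acceptor beads were added for 1 h before AlphaScreen reading.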
gsp antagonist – antagonists of gsp mutant (McCune-Albright syndrome) | gsp-mutant cells, cAMP HTRF, 30 min; control for the full effect not named in the record | Potency, µM (doses to about 76.9 µM), for inactives: at the top dose activity change, negative = inhibition, actives largely listed as inhibitors | 0.4% of 340,000 active; active = falling curve of any shape with a large fitted effect; inconclusive = falling curve, mostly with a smaller effect; inactive = flat or rising curve; cell line not stated here;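 also: intracellular cAMP measured with PDE inhibitor Ro 20-1724 present during compound exposure; potency is read from the fitted curve at half-maximal effect; % is scaled to controls: 0 for no effect and ±100 for the full control effect; nearly all actives have a fitted effect of over 65% in size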
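Cells in G418 medium, seeded 16-24 h, 37C; buffer exchange to DPBS + 1 mM CaCl2, 0.5 mM MgCl2, 0.05% BSA; cpds in DMSO + […] (300 uM stock), 30 min 37C; HTRF cAMP detection.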
TRPV1 PAM – enhances activation of the human vanilloid receptor TRPV1; potentiation, % at 8.33 µM; 0.02% of 320,000 active; Q8NER1; TRPV1-expressing cells, Fluo-8 calcium influx, capsaicin EC20 potentiation; host cell line not named in the record; control for the full effect not named in the record; active means potentiation above 80%; inconclusive means 30% to 80%; inactive means below 30%; also: 0% is about no effect
Target sequence (Q8NER1 whole entry, looked up): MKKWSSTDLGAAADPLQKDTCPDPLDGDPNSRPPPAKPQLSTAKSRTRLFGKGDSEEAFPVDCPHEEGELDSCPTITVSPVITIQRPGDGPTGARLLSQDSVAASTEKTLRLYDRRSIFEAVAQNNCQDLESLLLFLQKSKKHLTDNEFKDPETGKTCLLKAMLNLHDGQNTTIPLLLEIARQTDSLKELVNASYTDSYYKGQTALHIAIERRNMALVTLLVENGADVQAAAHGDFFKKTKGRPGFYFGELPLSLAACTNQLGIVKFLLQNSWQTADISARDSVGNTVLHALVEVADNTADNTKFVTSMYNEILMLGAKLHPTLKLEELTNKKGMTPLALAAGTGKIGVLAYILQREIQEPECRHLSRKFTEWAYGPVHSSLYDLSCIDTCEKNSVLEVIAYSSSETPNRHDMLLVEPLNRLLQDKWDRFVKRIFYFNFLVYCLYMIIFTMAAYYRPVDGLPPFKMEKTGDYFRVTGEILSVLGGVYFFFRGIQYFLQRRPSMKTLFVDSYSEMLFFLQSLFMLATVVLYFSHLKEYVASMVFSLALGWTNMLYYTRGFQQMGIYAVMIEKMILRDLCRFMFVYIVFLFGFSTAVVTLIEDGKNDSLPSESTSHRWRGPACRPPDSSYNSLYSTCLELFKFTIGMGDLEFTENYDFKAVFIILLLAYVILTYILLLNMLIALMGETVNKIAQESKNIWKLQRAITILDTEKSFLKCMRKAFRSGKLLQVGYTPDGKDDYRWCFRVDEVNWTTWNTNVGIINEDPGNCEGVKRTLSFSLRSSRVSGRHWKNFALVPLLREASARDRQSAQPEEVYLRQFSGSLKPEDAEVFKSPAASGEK
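TRPV1-expressing cells were cultured overnight at 35.5C and loaded with Fluo-8 calcium dye for 40 to 90 min at room temperature. After a 10 s baseline, compound was added and calcium influx was read kinetically for 3 min (ex 480/em 520 nm).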
Sfp PPTase inh – blocks B. subtilis Sfp PPTase activity; Q9F4F7; Biochemical Sfp PPTase activity, qHTS; Potency, µM, for inactives: max response, negative = inhibition, usual class: inhibitors; 3.5% of 310,000 active; AID 1490; active = well fitted inhibition curve with a large enough effect; inconclusive = small, poorly fitted or top-dose-only effect, or another doubt; inactive = no such curve, though single readings can be large or run the other way;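 also: the enzyme is Sfp with the accession as filed and its product quenches rhodamine fluorescence; potency is read from the fitted curve at half-maximal effect; 0% = enzyme reaction without inhibitor and -100% = no enzyme wells; top concentration of the series not given in the record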
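Compounds were incubated with enzyme (final 15 nM) for 15 min at room temperature before substrate addition started the reaction. Fluorescence at 525 nm excitation, 598 nm emission was recorded immediately and after 30 minutes.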
* marks the source's active call; other numbers are inactive results; ? = inconclusive; nt = no result given; & = joins results of further samples; [ ] = another dose, or the depositor's remark.

SMILES | Menin MLL FP FL | ClpP mod | gsp ag | CtBP-E1A blk | gsp antagonist | TRPV1 PAM | Sfp PPTase inh
CCCc1nc2cc(CC(=O)OC)ccc2o1 | 4.4 | 0.3% | 5% | 3 | 8% | -1 | -4%
CC(NC(=O)C1CCN(S(=O)(=O)c2ccc3nc4c(c(C(=O)O)c3c2)CCCC4)CC1)c1ccccc1 (centres undefined) | nt | -1.5%&-8.1% | ? | -18 | 8% | 29 | 11%
COc1ccc(OC)c(C2C(C#N)=C(N)Oc3c2c(C)nn3-c2cccc(Cl)c2)c1 (centres undefined) | 5.5 | -1.0% | ? | -5 | ? | 0 | -2%
O=C(NC(=S)N1CCOCC1)C12CC3CCC(CC(C3)C1)C2 | 4.3 | 1.3% | -8% | 6 | 6% | -5 | 27%
Cc1cc(-c2cc(C(=O)NC3CCCC3)on2)nc(NC2CCCC2)n1 | 3.9 | 199% | nt | 7 | -15% | ? | -1%
O=C(COc1ccc(S(=O)(=O)N2CCCCC2)cc1)NCc1ccncc1 | 3.7 | -1.4% | ? | -4 | 0% | -10 | 10%
C#CCOCCOCCOCCNc1nc(N2CCN(C(=O)Cn3cc(CC(C)O)nn3)CC2)nc(N2CCN(C(=O)Cn3cc(CC(C)O)nn3)CC2)n1 (centres undefined) | 7.4 | -1.0% | -17% | nt | 8% | -8 | 23%
O=C(OC1CCCCC1=O)c1cccc(S(=O)(=O)N2CCOCC2)c1 (centres undefined) | nt | -0.2% | 12%[15.4 µM] | 0 | 7% | 7 | nt
CC(=O)NCCOC(=O)Nc1ccncc1 | 1.2 | 0.9% | 17% | 5 | 5% | 4 | 8%
COC(=O)Cn1cnc2c(C#N)c3n(c2c1=O)CCCCC3 | 1.0 | -5.8% | ? | 2 | 20% | 13 | 14%
Cc1sc2nc(COC(=O)c3ccc(Cl)c(N)c3)[nH]c(=O)c2c1C | 10 | -20% | 5% | 3 | -5% | 6 | -17%
Cc1cccc(NC(=S)N2CCC(c3nc4ccccc4o3)CC2)c1C | ? | 1.2% | -3% | 7 | -21% | -1 | 3%
CCn1c(COc2ccccc2)nnc1SCC(=O)NC1CCCCC1 | 3.6 | -12% | -5% | 11 | -3% | 19 | 11%
CC1CCN(c2c(NCc3ccc(C(=O)NCc4ccccc4)cc3)c(=O)c2=O)CC1 | 1.8 | nt | 6%[15.4 µM] | -13 | 1% | -9 | 25%
C=CCn1c(COc2ccccc2OC)nc2ccccc21 | 0.8 | -2.0% | -19% | nt | -4% | -10 | 7%

An excerpt from above, limited to Sfp PPTase inh, Menin MLL FP FL and TRPV1 PAM:
smiles	Sfp PPTase inh	Menin MLL FP FL	TRPV1 PAM
COc1ccc(OC)c(C2C(C#N)=C(N)Oc3c2c(C)nn3-c2cccc(Cl)c2)c1 (centres undefined)	-2%	5.5	0
O=C(NC(=S)N1CCOCC1)C12CC3CCC(CC(C3)C1)C2	27%	4.3	-5

The list continues.
SMILES | Menin MLL FP FL | ClpP mod | gsp ag | CtBP-E1A blk | gsp antagonist | TRPV1 PAM | Sfp PPTase inh
Cc1ccc(C)c(S(=O)(=O)N/N=C2/CCCc3ccccc32)c1 | 3.0 | 1.0% | -19% | 5 | -10% | -10 | -2%
O=C1CCC(=O)N1c1ccc(-c2nc3sc4c(c3c(=O)o2)CCC4)cc1 | 1.2 | nt | -1%[15.4 µM] | 4 | 9% | 19 | 10%
CC1CCCN(C(=O)c2ccc3c(c2)OCCO3)C1 (centres undefined) | nt | 1.2% | -90%[inhibitor] | 9 | 10% | 4 | nt
Cc1ccccc1-c1cc2c(nn1)-c1ccccc1C2=O | 7.5 | -1.2% | 16%[15.4 µM] | -21 | -2% | -8 | -7%
Cc1cccc(N2CC(C(=O)NCC3COc4ccccc4O3)CC2=O)c1C (centres undefined) | nt | 1.2% | -2% | -14 | 3% | 3 | nt
O=C(Nc1ccc2c(c1)OCO2)C1CCN(C(=O)CSc2ncnc3ccccc23)CC1 | 9.4 | -2.5% | 2% | -15 | -17% | -8 | -3%
c1ccc2oc(CCc3nc4ccccc4o3)nc2c1 | 0.2 | -2.7% | -4% | -1 | 9% | -1 | 9%
COC(=O)[C@@H]1C[C@@]2(O)[C@H](O)[C@H](O)[C@H](O)C[C@H]2N1Cc1ccc(-c2ccccc2)cc1 | 5.4&-0.7 | -0.7% | 24% | 5 | 7% | -24 | 6%&3%
CC(=O)c1c(C)[nH]c(C(=O)Nc2cc(C)ccc2C)c1C | 1.3 | -0.7% | -26% | 0 | -15% | nt | -11%
Cc1cc(OCC(=O)OCC(=O)N2CCCc3ccccc32)ccc1Cl | nt | 1.2% | -78%[inhibitor] | -6 | nt | nt | nt
Cc1ccc(NC(=O)C(CC(C)C)NC(N)=O)cc1Cl (centres undefined) | 1.0 | -0.1% | 15% | 3 | 7% | -3 | 11%
COC(=O)c1ccc(OC(=O)c2ccc(OC)c(OC)c2)c(OC)c1 | 2.3 | -7.7% | -21% | -6 | 4% | 30 | -3%
CNC(=O)c1ccsc1NC(=O)CCS(=O)(=O)c1ccccc1 | -1.5 | -4.6% | 22%[15.4 µM] | 5 | -17% | 3 | 18%
Cc1cccc(N2CCN(C(=O)Cc3ccccc3[N+](=O)[O-])CC2)c1C | -6.7 | 0.6% | -59% | nt | 6% | -9 | 1%
O=C(COC(=O)/C=C/c1nc2ccccc2s1)Nc1cccc(Cl)c1Cl | 9.5 | -7.6% | 16% | 1 | 12% | -3 | 15%

Record cards, from the list above. Order of screens: Menin MLL FP FL | ClpP mod | gsp ag | CtBP-E1A blk | gsp antagonist | TRPV1 PAM | Sfp PPTase inh
Profile of Cc1cc(OCC(=O)OCC(=O)N2CCCc3ccccc32)ccc1Cl → nt | 1.2% | -78%[inhibitor] | -6 | nt | nt | nt
Profile of CC(=O)c1c(C)[nH]c(C(=O)Nc2cc(C)ccc2C)c1C → 1.3 | -0.7% | -26% | 0 | -15% | nt | -11%
Profile of Cc1cccc(N2CCN(C(=O)Cc3ccccc3[N+](=O)[O-])CC2)c1C → -6.7 | 0.6% | -59% | nt | 6% | -9 | 1%
Profile of Cc1ccc(C)c(S(=O)(=O)N/N=C2/CCCc3ccccc32)c1 → 3.0 | 1.0% | -19% | 5 | -10% | -10 | -2%

Additional results follow:
SMILES | Menin MLL FP FL | ClpP mod | gsp ag | CtBP-E1A blk | gsp antagonist | TRPV1 PAM | Sfp PPTase inh
CCOC(=O)c1sc(NC(=O)CSc2nccc(C)n2)nc1C | -2.6 | -0.8% | 29% | 12 | -8% | 3 | -1%
O=C(O)C1CCN(C(=O)c2ccc(S(=O)(=O)N3CCCCCC3)cc2)CC1 | nt | -0.3% | 12% | -13 | nt | nt | nt
O=C(Nc1ccccc1N1CCOCC1)c1cc(-c2ccncc2)nc2ccccc12 | 0.4 | nt | 21%[15.4 µM] | 2 | -27% | 9 | 15%
C=CC(=O)NC(NC(=O)C=C)c1ccc(Br)cc1 | -6.0 | -0.2% | 19% | 3 | 1% | nt | 2%
O=S1(=O)C[C@@H](N2CCC(Cc3ccccc3)CC2)[C@H](COCc2ccccc2)N1 | nt | 2.2% | -18% | -2 | nt | nt | nt
Cc1nc(S(=O)(=O)c2ccc(Br)cc2)nc2c1CCC2 | -5.1 | nt | 1%[15.4 µM] | 0 | nt | -5 | 13%
O=C(N(Cc1ccccc1)c1ccccn1)C12CC3CC(CC(C3)C1)C2 | -1.3 | -3.0% | 17% | 0 | ? | -15 | -10%
COc1ccc(CSc2nnc3[nH]c(=O)cc(N)n23)cc1 | -1.6 | nt | -7%[15.4 µM] | nt | 4% | -8 | ?
COc1cccc(C2CC(c3cccs3)=NN2C(=O)c2ccco2)c1O (centres undefined) | -1.6 | -2.0% | -1%[15.4 µM] | 0 | -20% | 11 | -7%
O=C(NCC1(N2CCOCC2)CCCCC1)c1cccc(S(=O)(=O)N2CCc3ccccc3C2)c1 | 7.9 | 1.5% | 9%[15.4 µM] | 0 | -18% | -3 | -3%
c1ccc(CCCNc2ncccn2)cc1 | -2.6 | ? | -22% | 0 | -1% | -5 | -9%
O=C(C1CCN(S(=O)(=O)c2ccc(Cl)cc2)CC1)N1CCCCCCC1 | nt | -3.5% | 2% | 0 | 0% | 3 | 1%
CCN(C(=O)COC(=O)Cc1ccc(F)cc1)c1c(N)n(Cc2ccccc2)c(=O)[nH]c1=O | nt | 0.8% | -9% | 6 | 11% | ? | nt
Cc1ccc(-c2nc(C(=O)NCCCN(C)C)cc3c2[nH]c2ccccc23)cc1 | 4.2 | 4.7% | 2% | nt | -14% | 7 | ?
COCCN(C(=O)c1cccc(N2C(=O)CCC2=O)c1)c1nc(-c2ccc([N+](=O)[O-])cc2)cs1 | nt | 1.9% | -46%[inhibitor] | 5 | -15% | -24 | nt
Cc1ncoc1C(=O)NC1CCCc2c1cnn2-c1ccc(C(C)(C)C)cc1 (centres undefined) | -4.1 | -14% | -11% | 9 | ? | -6 | -1%
Cn1c(SCC(=O)NNC(=O)Nc2ccc(Cl)cc2)nnc1-c1ccccc1 | -1.7 | nt | -30% | 5 | 3% | 12 | -3%
O=C(Nc1ccc(F)cc1)C1CC(=O)n2c(nc3ccccc32)N1 (centres undefined) | 1.0 | 0.9% | 23% | -1 | 12% | -3 | -16%
Cc1ccc(N(Cc2ccccc2)C(=O)c2ccc(S(=O)(=O)N3CCOCC3)cc2)cc1 | nt | -0.9% | -6%[15.4 µM] | -1 | -24% | -7 | nt
CC(C)(C)OC(=O)[C@H](Cc1ccccc1)NC(=O)c1[nH]cnc1C(=O)Nc1ccc(Cl)cc1 | ? | -25% | -3% | -4 | 12% | -15 | 21%
O=P1(NC2CCCC2)OCC2(CO1)COP(=O)(NC1CCCC1)OC2 (centres undefined) | nt | 0.7% | -59%[inhibitor] | -1 | 0% | nt | nt
COc1ccc(-n2c(CCC(=O)O)ccc2-c2ccc(F)cc2)c(OC)c1 | 3.2 | -13% | -40% | -13 | 35µM* | 4 | -4%
COc1cc(CNc2ccc3[nH]c(=O)[nH]c3c2)ccc1OCc1ccc(F)cc1Cl | 7.2 | ? | -14%[15.4 µM] | 4 | 4% | -23 | -9%
COCCSc1ccccc1C(=O)Nc1nnc(COC)s1 | -5.5 | -0.2% | -35%[inhibitor] | 1 | 7% | 9 | ?
